Assay outcomes: PubChem BioAssay, several laboratories
CSC inhib: blocks cancer stem cells | inhibition, % at 7.5 µM | 300,000 tested, 1.1% active | cancer stem cell-like cells viability, luminescence;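 active = mean at 75% or more and at least half the replicates too; inconclusive = mean and replicates disagree; tested in HMLE shEcad cells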;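 also: 0% = median of negative and 100% = median of positive control wells; the first replicate is given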
PABP polyA inh: PABP-poly(A) binding inhibition; AID 2014; PABP-poly(A) RNA binding, fluorescence polarization; P11940; 290,000 tested, 1% active; inhibition, % at 35 µM;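 active = 50% or more with normal probe brightness, or confirmed in later tests; inconclusive = above 50% with abnormal brightness, or retests that disagree; inactive = below 50% or failed in later tests; about a fifth of its hits are not listed in these tables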;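 also: calls also rest on retests at 20 µM and on dose response follow-up; controls were probe without protein and protein plus probe with vehicle; some compounds called inactive have numbers as strong as hits; many hits fall short of the cut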
Target sequence (P11940 whole entry, looked up): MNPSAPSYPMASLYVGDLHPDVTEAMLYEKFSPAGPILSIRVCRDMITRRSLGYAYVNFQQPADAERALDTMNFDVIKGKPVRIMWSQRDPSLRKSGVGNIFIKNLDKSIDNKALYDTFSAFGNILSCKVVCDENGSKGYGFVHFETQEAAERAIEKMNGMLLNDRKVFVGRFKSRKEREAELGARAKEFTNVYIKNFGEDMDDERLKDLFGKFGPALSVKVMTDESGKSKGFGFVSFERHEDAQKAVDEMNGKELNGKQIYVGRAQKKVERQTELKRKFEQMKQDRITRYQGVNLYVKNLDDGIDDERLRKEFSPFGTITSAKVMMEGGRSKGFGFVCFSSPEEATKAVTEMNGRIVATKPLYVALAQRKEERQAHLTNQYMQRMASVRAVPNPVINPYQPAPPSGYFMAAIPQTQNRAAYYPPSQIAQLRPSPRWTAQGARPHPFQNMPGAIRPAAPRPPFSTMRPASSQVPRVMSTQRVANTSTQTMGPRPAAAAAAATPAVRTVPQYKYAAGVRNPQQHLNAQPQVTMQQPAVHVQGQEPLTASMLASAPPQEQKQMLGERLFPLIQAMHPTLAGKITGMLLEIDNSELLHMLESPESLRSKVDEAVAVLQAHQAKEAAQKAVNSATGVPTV
Rce1 inhib: blocks yeast Ras-converting enzyme. 290,000 tested, 0.27% active. calls only. yeast membranes, quenched prenylated peptide cleavage fluorescence;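 active = fall in fluorescence gain of 50% or more versus controls, with final raw signal at or below 3038400; inconclusive = same 50% fall but final raw signal above 3038400; inactive = fall in fluorescence gain under 50%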;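 also: plate controls were neutral control wells for no effect and wells lacking membranes for full effect; tested at 10 µM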
Target sequence (Q03530 whole entry, looked up): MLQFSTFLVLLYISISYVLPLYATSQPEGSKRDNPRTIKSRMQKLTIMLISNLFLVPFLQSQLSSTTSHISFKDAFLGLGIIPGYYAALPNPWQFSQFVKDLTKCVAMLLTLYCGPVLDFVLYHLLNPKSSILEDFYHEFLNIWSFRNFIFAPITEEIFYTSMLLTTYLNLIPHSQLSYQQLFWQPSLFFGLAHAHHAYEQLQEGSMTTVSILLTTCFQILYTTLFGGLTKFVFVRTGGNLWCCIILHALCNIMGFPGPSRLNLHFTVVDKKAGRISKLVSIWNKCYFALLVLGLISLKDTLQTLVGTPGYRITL
Yeast UUG start: alters start codon recognition fidelity in yeast | AID 602363 | activity score, % at 18.7 µM | 350,000 tested, 0.13% active | S. cerevisiae UUG-firefly luciferase reporter, luminescence/redox ratio;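 active = replicate mean at a twofold rise or more, about +100% in these data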;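 also: firefly luciferase made from a UUG start codon reports start codon fidelity; reporter light over untreated wells divided by growth signal over untreated wells; some hits fall short of that in this replicate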
MT1-MMP act inh: blocks activation of human MT1-MMP. P50281. HT1080 RFP-PRO-GFP cells, GFP/RFP ratio fluorescence, overnight; percent of plate control window, DMSO zero. GFP/RFP ratio change, % at 20 µM. 360,000 tested, 0.061% active. AID 651647;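 active = GFP/RFP ratio change of at least 30% with cell ATP level not reduced by more than half and red fluorescence within 50% of control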; also: strong numbers were not always called active
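Test system: HT1080 cells expressing an RFP-PRO-GFP fluorescent reporter construct / Compound dosing: single-point 20 µM compound, 1% DMSO / Schedule: cells overnight before dosing, compound overnight, 37 °C, 5% CO2 / Evaluation: GFP/RFP fluorescence ratio / Control set: DMSO and RFP-L50D-GFP cell wells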
eIF4H FP inh: inhibitors of RNA binding by human eIF4H; Q15056; eIF4H fluorescence polarization binding assay; inhibition, % at 35 µM; 290,000 tested, 0.94% active; AID 2012;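 active = 50% or more with normal probe brightness, or confirmed in later tests; inconclusive = above 50% with abnormal brightness, or retests that disagree; inactive = below 50% or failed in later tests; about a fifth of its hits are not listed in these tables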;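 also: calls also rest on retests at 20 µM and on dose response follow-up; 0% = protein and probe with vehicle and 100% = probe without protein; strong numbers were not always called active; many hits fall short of the cut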
Env fusion inh: inhibitors of HIV Env-mediated cell fusion | inhibition, % at 12.3 µM | 360,000 tested, 1.1% active | HeLa-JRFL Env/CEM21 cell fusion, luciferase | AID 651610;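 active = mean replicate inhibition score of at least 50 and every replicate individually at or above 50; inconclusive = only one of the two criteria met; inactive = mean below 50 and not all replicates reaching 50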;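 also: 0% = plate neutral controls and 100% = maraviroc near 300 nM; one replicate is shown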
eIF4H FP inh retest: further read-out of eIF4H FP inh, marked with its call; inhibition, %; compound at 20 µM; confirmation average;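 mean of two retest wells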
PABP polyA inh retest: also measured in PABP polyA inh; calls as there; inhibition, %; compound at 20 µM; confirmation repeats;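 mean of two retest wells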
MT1-MMP act inh RFP: second read-out of MT1-MMP act inh, no call of its own (marks repeat the call); RFP signal change, %; measured here: RFP expression control read;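 0 = vehicle wells; hits needed this value within 50% of zero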
An asterisk follows results filed as active; i = inactive; ? = inconclusive; · = not tested or not shown; & = joins results of further samples.

SMILES	CSC inhib	PABP polyA inh	Rce1 inhib	Yeast UUG start	MT1-MMP act inh	MT1-MMP act inh RFP	eIF4H FP inh	Env fusion inh	others
CCc1ccc2oc(C(=O)NCCc3ccc(S(N)(=O)=O)cc3)cc(=O)c2c1	-3.4	-3.0	i	-18.5	5.9	-6.3	-2.4	7.7
O=C(NCc1ccccn1)C1CCN(S(=O)(=O)N2CCCC2)CC1	6.5	-7.0	i	-27.1	-2.3	3.7	-1.2	·
O=C1NN(c2cccc(Br)c2)C(=O)/C1=C\c1ccc(O)cc1	108.2*	4.9	i	-2.9	-1.4	-1.2	-0.2	8.8
Cn1c(=O)cc(N)n(Cc2ccccc2)c1=O	3.2	0.6	i	-1.6	-0.3	-1.4	3.7	25.1
COc1ccc(N2CCN(C(=O)CSc3nc4[nH]ncc4c(=O)n3-c3cccc4ccccc34)CC2)cc1	-8.8	-0.1	i	·	2.4	-0.2	0.8	-0.2
CCc1cc(-c2onc(C)c2-c2cscn2)c(O)cc1OC	17.8	-13.8	i	·	1.7	-2.2	1.5	16.6
COc1ccc(CCC(=O)OCC(=O)NCc2ccc(OC)c(OC)c2)cc1OC	-3.2	·	·	-16.7	0.2	-2.5	·	·
CCN(CC)S(=O)(=O)c1ccc(C(=O)OCn2nnc3ccccc3c2=O)cc1	-12.2	-5.4	i	-48.6	4.6	1.1	0.2	·
O=C(NCC1CCCO1)C(c1cccs1)N(Cc1cccs1)C(=O)Cn1nnc(-c2cccs2)n1 (stereo unspecified)	·	-15.6	·	-2.6	-3.5	-2.8	-0.9	-148.6
Cn1nc(OCC(=O)O)cc1C(F)(F)F	-4.6	10.8	i	·	1.5	1.2	-4.9	-6.2
CCC(C)C(CO)NC(=O)/C=C/[C@H]1O[C@@H](n2cnc3c(NC(=O)c4ccccc4)ncnc32)[C@H](O)[C@@H]1O (stereo partly specified)	·	·	·	1.2	4.3	5.1	·	-3.7
CCn1c(SCC(=O)NNC(=O)c2ccccc2)nnc1-c1ccncc1	-4.0	0.6	i	-12.7	4.1	7.9	-0.6	-16.3
CC(C)Oc1cccc(C2NC(=O)c3ccccc3O2)c1 (stereo unspecified)	-24.2	-1.2	i	-4.7	-1.3	1.7	-4.4	-5.0
Cc1cc(C)nc(/N=C(\NC(=O)C(C)(C)C)Nc2ccccc2)n1	-11.4	4.6	i	-5.7	0.0	5.6	-10.0	-2.5
COC(=O)C(Sc1ccc(Cl)cc1)C1SC(=S)N(Cc2ccccc2)C1=O (stereo unspecified)	·	·	·	-8.0	-7.2	-7.3	·	-9.7
O=C(CSc1n[nH]c(-c2cccnc2)n1)Nc1ccc(Br)cc1	·	6.7	i	-19.9	1.5	-1.8	-4.2	1.7
Cc1ccc(NC(=O)C2CCN(S(=O)(=O)c3c(C)noc3/C=C/c3ccco3)CC2)nc1	2.2	3.9	i	-12.1	-12.3	-22.7	46.3	·
COc1ccc(F)cc1-c1cc(C(=O)NCc2cccc(Cl)c2)[nH]n1	·	·	·	-11.6	2.0	-2.0	·	-10.4
CN1CCN(CC(=O)Nc2ccc([N+](=O)[O-])cc2Br)CC1	8.5	-3.5	·	·	-1.5	3.0	4.4	-2.3
CC(C)NC(=O)c1cc2c(-c3ccc(Cl)cc3)nn(C)c2s1	-11.9	-10.2	i	-8.9	-5.0	7.6	-7.7	11.0
CCc1nc(NCc2ccc3c(c2)OCO3)c2oc3ccccc3c2n1	-17.0	8.6	i	-0.7	1.0	-7.8	1.8	15.6
NC(=O)Cn1cnc2c(nnn2-c2cccc(Cl)c2)c1=O	-13.1	-6.6	i	-15.6	-2.4	-0.2	-14.3	-10.9
O=C(O)c1cc(NS(=O)(=O)c2ccc(N3CCOCC3)c([N+](=O)[O-])c2)cc(C(=O)O)c1	-15.7	4.4	i	·	0.2	1.9	-9.5	-4.5
c1ccc(-n2c(-c3ccco3)nnc2-c2ccco2)cc1	-10.3	-1.8	i	5.8	-1.6	0.3	9.6	·
CCCNC(=O)c1cc(C2CCCCN2S(=O)(=O)c2ccc(F)cc2F)on1 (stereo unspecified)	·	·	·	-2.8	5.8	0.9	·	21.3
SMILES	CSC inhib	PABP polyA inh	Rce1 inhib	Yeast UUG start	MT1-MMP act inh	MT1-MMP act inh RFP	eIF4H FP inh	Env fusion inh	others
Cc1ccc2nc(N3C(=O)C(O)=C(C(=O)c4cc5ccccc5o4)C3c3cccs3)sc2c1 (stereo unspecified)	0.6	4.9	i	-21.7	-9.0	11.7	7.1	·
CCOC(=O)C1C(=O)CC(C)(O)C(C(=O)OCC)C1c1cccc(OC(F)(F)C(F)F)c1 (stereo unspecified)	-8.5	-1.8	i	-13.7	-3.4	4.9	-3.4	-131.3
CCOc1ccc(C(=O)NC2CC3CCCC(C2)N3CC(C)C)cc1 (stereo unspecified)	-1.3	1.6	i	·	3.8	2.7	-1.5	8.9
CCOc1ccc2nc(SCC(=O)NCc3ccccc3)[nH]c2c1	-8.0	2.6	i	-18.1	-2.8	-4.3	-4.4	-1.5
N#Cc1ccccc1OCC(=O)OCC(=O)NC1CC1	-7.1	·	·	-9.1	-4.6	3.6	·	·
CCOc1ccccc1Nc1nnc(SCc2ccc(C(=O)OC)o2)s1	48.7	-3.2	i	-0.2	-0.9	-7.2	-5.7	-203.3
O=C(CCCCn1c(=O)[nH]c2ccsc2c1=O)NCc1ccc2c(c1)OCO2	-10.5	-0.6	i	2.1	-1.0	1.9	2.0	-6.6
CCOc1ccc(C(CC(=O)O)NC(=O)C(CC)c2ccccc2)cc1 (stereo unspecified)	-2.0	-5.6	i	1.1	-1.2	-0.5	-5.0	4.6
CC(C)COC(=O)N(C)C[C@@H]1OCc2cn(nn2)CCCC(=O)N([C@@H](C)CO)C[C@H]1C	·	·	·	-16.7&1.6&-4.9	-3.2	0.7	·	6.7
O=C(Nc1ccon1)c1nc[nH]c1C(=O)N1CCN(c2ccccc2)CC1	-11.8	·	·	-9.3	2.9	3.3	·	24.4
COc1ccc(NS(=O)(=O)c2ccc(NS(=O)(=O)c3cccc(C(=O)O)c3)cc2)cc1	-8.4	7.3	i	0.1	-6.5	-0.6	-4.0	-11.0
Cc1ccc(S(=O)(=O)N(CC(=O)Nc2ccc(C)c(Cl)c2)C(=O)N2CCN(C)CC2)cc1	·	·	i	·	3.3	2.3	·	-25.1
CCNC(=O)C1(C)CCCN(C(=O)c2cccc(C)c2C)C1 (stereo unspecified)	·	·	·	-10.1	0.2	4.1	·	0.1
COc1ccc(N2CC(C(=O)N3CCN(c4ccccc4F)CC3)CC2=O)cc1 (stereo unspecified)	·	3.3	i	-28.3	-1.5	1.5	-3.3	-8.5
O=C(CSc1ncnc2c1oc1ccccc12)NCC1CCCO1 (stereo unspecified)	-4.1	·	i	-11.1	1.7	6.4	·	·
Cn1c(Nc2ccc(F)cc2)nc2cc(-c3ccsc3)sc2c1=O	·	·	·	-8.0	3.2	-0.2	·	-56.9
CC1CN(c2oc(-c3ccco3)nc2C#N)CC(C)O1 (stereo unspecified)	-12.9	5.4	i	-11.9	-1.4	-2.5	-1.5	·
CCn1c(=O)c2cc(C(=O)NCCOC)sc2c2ccccc21	-1.5	4.8	i	-13.5	6.2	2.1	-9.1	-1.1
C[C@H](NC(=O)c1nc[nH]c1C(=O)NCCCCCN)C(=O)OC(C)(C)C	-5.1	·	i	-4.3	0.1	1.7	·	-16.4
Cc1nc(-c2nnc(SCC(=O)Nc3ccc(Cl)cc3)n2C)cs1	-12.1	-7.2	i	·	2.6	-3.1	-4.6	2.4
CCN(CC)c1ccc(/C=N/N2CCN(Cc3ccc(Cl)cc3)CC2)c(O)c1	65.2	-3.1	i	·	-1.1	-9.3	-7.4	13.5
O=C(/C=C/c1ccco1)Nc1cccc(NC(=O)/C=C/c2ccco2)n1	25.7	14.9	i	·	-1.6	0.7	?	-4.3
CCOc1ccc(-n2c(SCC(=O)NCc3ccco3)nnc2-c2c[nH]c3ccccc23)cc1	-7.1	3.3	i	-17.0	1.4	-5.2	-1.4	-87.4
CCCn1c2ccccc2c2cnn(CC(=O)N3CCN(C4CCCCC4)CC3)c(=O)c21	0.7	-9.5	i	3.2	1.3	2.0	-3.5	·
COc1ccc(C(=O)NC2CCc3ccccc32)cc1OC1CCN(C(C)=O)CC1 (stereo unspecified)	-7.3	-7.9	i	-3.5	2.4	3.2	-0.7	39.0

Brought forward from above: two entries, followed by the next part.
SMILES	CSC inhib	PABP polyA inh	Rce1 inhib	Yeast UUG start	MT1-MMP act inh	MT1-MMP act inh RFP	eIF4H FP inh	Env fusion inh	others
CCCn1c2ccccc2c2cnn(CC(=O)N3CCN(C4CCCCC4)CC3)c(=O)c21	0.7	-9.5	i	3.2	1.3	2.0	-3.5	·
COc1ccc(C(=O)NC2CCc3ccccc32)cc1OC1CCN(C(C)=O)CC1 (stereo unspecified)	-7.3	-7.9	i	-3.5	2.4	3.2	-0.7	39.0
CCN1C(=NCCN2CCOCC2)N[C@@H](c2ccccc2)C(C(=O)OC)=C1C	-0.5	25.5	i	-8.7	1.5	8.1	1.7	-10.1
O=C(CSc1nc(NS(=O)(=O)c2ccccc2)cc(=O)[nH]1)Nc1ccccc1Cl	·	15.2	i	-11.9	2.2	5.0	-14.7	-20.0
Cc1noc(NS(=O)(=O)c2ccc(NC(=O)/C=C/c3ccc(C(C)C)cc3)cc2)c1C	19.7	-2.5	i	11.7	4.6	3.2	-3.9	-0.5
C=C(C)COc1ccc(-c2ncncc2-c2ccccc2)c(O)c1	10.4	-1.7	i	-16.8	-3.6	-8.1	0.1	-2.8
O=C(N/N=C/c1ccc([N+](=O)[O-])cc1)C(=O)N1CCCC1	-11.4	0.8	i	·	-0.5	3.1	-3.7	4.9
O=C(CSCC(=O)N1CCCc2ccccc21)Nc1nc(-c2ccccc2)cs1	10.3	11.4	i	9.4	-2.8	-0.4	-0.9	-28.2
NC(=O)c1cc([N+](=O)[O-])c(Cl)cc1NCc1ccncc1	6.0	·	·	-14.6	-4.1	-4.5	·	-22.5
COc1cccc(O)c1CN1CCC(C(=O)Nc2ccc(-c3cccc(C)c3)cc2)CC1	101.1*	-10.1	i	-1.7	8.0	-10.8	-1.8	5.7
Cc1nc2ncccn2c1-c1csc(Nc2ccccc2)n1	-9.4	16.1	i	·	5.8	-12.6	-2.1	5.5
CCOC(=O)N1CCN(C(=O)c2oc3ccc(S(=O)(=O)N4CCOCC4)cc3c2C)CC1	-4.6	4.5	i	-8.5	-0.1	-6.0	-3.9	-23.0
Nc1c(/C=C2/C=CC(=O)C(O)=C2)c(=O)nc2sc(CC(=O)N3CCCC3)nn12	-1.1	21.8*	i	-10.3	-14.5	25.0	55.2*	-6.9	eIF4H FP inh retest=72.5*;PABP polyA inh retest=54.0*
CCOC(=O)c1ccc(S(=O)(=O)NNC(=O)COc2ccccc2C)cc1	1.0	4.9	i	·	1.0	5.6	0.1	9.7
Cc1cc(NC(=O)CSc2nnc(-c3cccnc3)n2C)no1	·	2.7	i	-0.6	3.9	7.1	-2.3	-10.9
CCC(C)(C)n1nnnc1C(c1ccc(O)cc1)N1CCc2ccccc2C1 (stereo unspecified)	-6.1	1.9	i	3.2	0.3	2.2	3.2	6.5
CCCCCCCc1nc2nc(C)c(Br)c(=O)n2[nH]1	27.4	-4.3	i	-13.2	-0.6	5.3	-6.9	-13.7
O=C(CCC(=O)c1cccs1)Nc1ccc(N2CCCCC2)cc1	-2.7	-5.7	i	-23.8	-7.2	-6.3	20.1	5.1
